TRPML1 agonist: activates the human TRPML1 channel. activation, % (no concentration beside the values). Q9GZU1. hit rate 0.12% among 410,000. TRPML1-expressing cells, Ca2+ dye fluorescence, FDSS; host cell line not named in the record; reference of the full effect not given here; in the data active = activation above about 50%; inconclusive = about 30% to 50%; inactive = below about 30%; also: 0% is about no effect; the text of the record puts the active cut at 80%
Target sequence (Q9GZU1 whole entry, looked up): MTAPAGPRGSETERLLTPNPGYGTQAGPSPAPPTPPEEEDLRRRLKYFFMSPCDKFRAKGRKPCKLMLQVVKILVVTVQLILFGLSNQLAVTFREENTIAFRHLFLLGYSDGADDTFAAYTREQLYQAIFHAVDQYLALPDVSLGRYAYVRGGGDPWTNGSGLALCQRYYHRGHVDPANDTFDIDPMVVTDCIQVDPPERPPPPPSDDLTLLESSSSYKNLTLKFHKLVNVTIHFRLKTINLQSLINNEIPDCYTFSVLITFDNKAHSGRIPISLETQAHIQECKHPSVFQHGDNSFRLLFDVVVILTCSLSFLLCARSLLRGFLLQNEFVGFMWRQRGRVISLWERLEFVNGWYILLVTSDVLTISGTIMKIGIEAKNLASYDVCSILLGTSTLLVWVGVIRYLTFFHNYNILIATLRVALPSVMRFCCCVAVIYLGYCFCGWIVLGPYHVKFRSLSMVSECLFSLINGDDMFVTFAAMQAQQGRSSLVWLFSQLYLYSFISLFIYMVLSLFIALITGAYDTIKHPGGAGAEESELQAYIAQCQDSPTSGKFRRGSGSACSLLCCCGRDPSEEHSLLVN
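Cells: TRPML1-DL, 1X Tet inducer, ~16 h at 37 degrees C/5% CO2. Dye: ABD Ca8 no-wash + quencher, 45-90 min RT. Read: 10 s baseline, compound add, 110 s agonist phase; 54-4 EC80 (4uM final), 110 s antagonist phase.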
D2 potentiator: human D2 receptor positive allosteric modulation | AID 624464 | potentiation, % (test concentration not listed) | P14416 | DiscoveRx D2 beta-arrestin cells, luminescence, 90 min; 100% = 57 uM dopamine signal | hit rate 0.23% among 360,000; active = potentiation of 50% or more; inconclusive = 30% to 50%; inactive = 30% or less;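 also: compound concentration not given in the record; tested on top of an EC20 dose of dopamine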
Target sequence (P14416 whole entry, looked up): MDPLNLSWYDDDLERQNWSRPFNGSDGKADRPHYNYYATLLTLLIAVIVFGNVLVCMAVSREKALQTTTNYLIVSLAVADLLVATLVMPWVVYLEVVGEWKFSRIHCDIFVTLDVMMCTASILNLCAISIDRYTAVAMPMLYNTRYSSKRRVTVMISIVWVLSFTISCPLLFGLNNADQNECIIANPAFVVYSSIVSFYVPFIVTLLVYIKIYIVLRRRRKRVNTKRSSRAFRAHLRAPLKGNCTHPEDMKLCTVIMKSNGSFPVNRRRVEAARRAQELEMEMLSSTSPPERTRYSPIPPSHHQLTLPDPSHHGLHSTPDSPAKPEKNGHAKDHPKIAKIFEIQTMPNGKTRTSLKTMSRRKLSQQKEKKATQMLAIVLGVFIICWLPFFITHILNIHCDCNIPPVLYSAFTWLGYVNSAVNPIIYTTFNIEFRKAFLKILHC
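PathHunter D2 cells, attached overnight at 37 deg C, received compound in DMSO plus dopamine at EC20 (50 nM final) for 90 min at 37 deg C. Beta-arrestin recruitment was read as luminescence after 1 h with detection reagent at ambient temperature.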
PINK1 modulator: modulators of PINK1 expression | hit rate 0.2% among 410,000 | AID 624263 | Potency, µM (doses to about 76.6 µM), inactives show at the highest dose activation (PINK1 increase), hits mostly activators | PINK1 immunofluorescence, high-content cytometry, 24 h; active = well fitted activation curve with a large enough effect; inconclusive = small, poorly fitted or top-dose-only effect; inactive = flat fitted curve, though single readings scatter; cell line not stated here;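 also: potency is read from the fitted curve at half-maximal effect; % of control where 0% means no effect; nearly all actives have a fitted effect of over 65% in size; a mitochondrial uncoupler was the plate control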
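PINK1 protein level read as immunofluorescence by microplate cytometer in a fixed, stained stable cell line after 24 h exposure to five compound concentrations, with CCCP as control.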
CtBP-E1A inh: inhibitors of CtBP/E1A interaction; AlphaScreen GST-E1A/His-CtBP binding, 1536-well; stronger effect = lower value; control for the full effect not named in the record; activity change, % (no concentration beside the values); hit rate 0.49% among 340,000; in the data active means activity change below about -65%; inconclusive means about -30% to -65%; inactive means above about -30%; also: % is scaled to controls: 0 for no effect and ±100 for the full control effect; compound concentration not given in the record
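Homogeneous bead-based format: GST-tagged E1A captured on glutathione donor beads, His-tagged CtBP on nickel acceptor beads; compounds precede bead addition by 2 h at 37 °C.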
Six1-Eya2 blk: inhibitors of human Six1/Eya2 interaction; AlphaScreen GST-Six1/His-Eya2 binding, biochemical; stronger effect = lower value; control for the full effect not named in the record; activity change, % (concentration not given with the values); hit rate 0.56% among 360,000; Q15475+O00167; in the data active = activity change below about -65%; inconclusive = about -30% to -65%; inactive = above about -30%; also: % is scaled to controls: 0 for no effect and ±100 for the full control effect
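Six1/Eya2 binding was read as AlphaScreen signal after compounds were pinned into GST-Six1 plus His-tagged Eya2 (5X stock 250/500 nM) in pH 8.0 Tris/NaCl/TCEP buffer, beads added, then incubated 1 h, 37 C, dark.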
D2 ag: agonists of human D2 dopamine receptor (beta-arrestin); DiscoveRx PathHunter D2 beta-arrestin, luminescence, 90 min; 100% = 57 uM dopamine signal; hit rate 0.084% among 360,000; P14416; activation, % (test concentration not listed); in the data active = activation above about 40%; inconclusive = about 15% to 40%; inactive = below about 15%; also: compound concentration not given in the record; the text of the record calls up to 30% inactive
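Agonist mode: compounds alone added to overnight-plated D2 PathHunter cells for 90 min at 37 C, with 57 uM final dopamine (EC100) defining full response. Beta-arrestin recruitment detected by chemiluminescent reagent, read after 1 h at ambient temperature.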
The depositor's hits bear a star; ? = inconclusive; nt = not tested or not shown; [ ] = another dose, or the depositor's remark. This is a random part of the collection. About 1.3% of those tested had a hit in this group.

item	Structure	CtBP-E1A inh	PINK1 modulator	TRPML1 agonist	D2 ag	Six1-Eya2 blk	D2 potentiator
1	C[C@@H]1CC[C@]2(C(=O)O[C@@H]3O[C@H](CO)[C@@H](O)[C@H](O)[C@H]3O)CC[C@]3(C)C(=CCC4[C@@]5(C)CC[C@H](O[C@@H]6OC[C@H](O)[C@H](O[C@@H]7O[C@H](CO)[C@@H](O)[C@H](O)[C@H]7O)[C@H]6O)C(C)(C)C5CC[C@]43C)C2[C@]1(C)O (stereo partly specified)	-6.0	-0.7%	0.5	-2.1	0.1	-11.0
2	Cn1c(=O)n(CC(N)=O)c(=O)c2c1nc(Br)n2Cc1ccccc1	nt	0.0%	nt	1.0	1.6	14.1
3	Cc1cc(C)c(NC(=O)c2ccc3c(c2)C(=O)N(Cc2cccnc2)C3=O)c(C)c1	-2.1	0.2%	1.2	-0.3	-1.5	4.0
4	Cc1cnc(CNc2nc3cc(-c4ccccc4C)sc3c(=O)n2C)cn1	-2.9	0.6%	-1.3	-1.9	-3.0	-2.7
5	NC(=O)c1ccc(Nc2ccc3nonc3c2[N+](=O)[O-])cc1	8.8	0.6%	0.4	7.1	-4.2	6.4
6	CN(c1ccc(C(=O)Nc2ccccc2C(F)(F)F)cc1)S(C)(=O)=O	2.2	0.1%	-0.4	-4.0	0.0	-33.6
7	Cc1cccc(NC(=O)COC(=O)C(NC(=O)c2cccc(S(=O)(=O)N3CCOCC3)c2)C(C)C)c1 (stereo unspecified)	2.1	8.8%	4.9	-1.3	-3.7	-15.4
8	Cc1ccc(-c2nn(CCC(=O)NC(C)C)c(=O)c3ccccc23)cc1	-6.1	5.3%	1.7	-1.8	-10.7	-1.9
9	Cn1c(=O)[nH]c(=O)c2c1nc1n2CC(O)CN1c1ccccc1 (stereo unspecified)	15.0	1.7%	0.8	3.6	19.3	5.4
10	COC(=O)[C@]1(Cc2ccccc2)N[C@H](CN(C)C(=O)NC(C)C)[C@@H]2C(=O)N(C)C(=O)[C@@H]21	6.2	-0.4%	3.2	0.5	5.9	-0.5
11	CC12CC3(C)CC(C)(C1)CC(NC(=O)N1CCCC1)(C2)C3	5.8	0.1%	3.3	-3.3	2.1	4.6
12	O=C(COC(=O)c1cc2c(s1)CCCCC2)NC1CCS(=O)(=O)C1 (stereo unspecified)	5.5	2.4%	0.0	-4.2	6.0	0.8
13	Cc1ccc(S(=O)(=O)N2C[C@H]3[C@H]4C(=O)N(c5ccccc5)C(=O)[C@H]4C[C@H](OC(=O)NCC4CCCCC4)[C@@]3(O)C2)cc1	-16.8	0.7%	-0.6	-9.7	-6.0	0.2
14	CCN(CC)c1nc2ccccc2nc1C(C#N)C(=O)NCCCOC (stereo unspecified)	-17.0	2.1%	1.9	-1.5	-12.4	-17.0
15	CCOC(=O)c1cc(C#N)c(SCC(N)=O)[nH]c1=O	nt	0.6%	0.5	-2.9	0.9	-7.2
16	O=C(Nc1ccc(Cl)c(S(=O)(=O)N2CCOCC2)c1)c1ccc(OCC2CCCO2)cc1 (stereo unspecified)	-0.6	-4.4%	-0.5	?	?	?
17	COC(=O)c1ccc2nc(-c3ccc(C)cc3)c(Cc3ccccc3OC)n2c1	2.1	4.5%	1.0	2.1	-4.1	-1.3
18	CS(=O)(=O)N(CC(=O)N1CCCC1)Cc1ccc(Cl)c(Cl)c1	nt	2.5%	nt	3.5	1.1	8.6
19	CCCCCCCOC1(c2ccccc2)OC(=O)c2ccccc21 (stereo unspecified)	65.5	?	0.4	-5.4	56.6	-23.0
20	CC1(C)CC(=O)C=C(c2ccc3ncccc3c2)C1	2.2	-1.3%	-0.1	-5.7	2.6	-2.0
21	COc1cccc(CN2CC(C(=O)N(C)Cc3nc(C)cs3)CCC2=O)c1 (stereo unspecified)	5.0	0.4%	-0.3	-3.4	-0.2	-6.0
22	Cc1cc(C)cc(NC(=O)Nc2ccc3ccccc3n2)c1	3.8	3.5%	0.0	0.5	-1.2	-8.0
23	Cc1coc2cc3oc(=O)c(CCC(=O)NCCCn4ccnc4)c(C)c3cc12	-8.2	-0.5%	nt	-2.7	-1.4	-47.4
24	Cc1cc(OCC(=O)Nc2ccc(F)c(F)c2)nc(C(C)C)n1	-7.5	0.4%[38.3 µM]	4.1	-0.9	-11.6	-12.0
25	O=C(CC[C@H]1O[C@@H](n2ccc(=O)[nH]c2=O)[C@H](O)[C@@H]1O)N[C@H](Cc1ccccc1)C(=O)NCCCN1CCCC1=O	-19.7	0.0%	3.1	-2.7	14.0	-6.4
26	O=C(c1cc([N+](=O)[O-])ccc1N1CCCC1)N1CCCC1	-1.4	-0.6%	1.1	-6.9	12.9	-8.1
27	C=CC1=C2C=C(C3CC3)N(CCCN(CC)CC)C=C2C(=O)C(C)(OC(=O)c2ccco2)C1=O (stereo unspecified)	-3.1	1.1%	-0.8	0.2	-5.7	4.4
28	N=c1oc2ccc3ccccc3c2cc1C(N)=S	nt	-1.8%	-0.2	-2.8	-15.5	-10.3
29	CCCOc1ccc(NC(=O)CCC(=O)NC(C)c2ccccc2)cc1 (stereo unspecified)	-5.7	5.2%	1.2	-5.8	4.2	-1.6
30	Clc1cccc(OCc2nnc(-c3ccccc3Br)o2)c1	30.0	0.3%	2.9	-1.5	51.9	-2.0

One compound at a time, as listed above. Order of values: CtBP-E1A inh, PINK1 modulator, TRPML1 agonist, D2 ag, Six1-Eya2 blk, D2 potentiator
Shown for Clc1cccc(OCc2nnc(-c3ccccc3Br)o2)c1 → 30.0, 0.3%, 2.9, -1.5, 51.9, -2.0
Shown for O=C(CC[C@H]1O[C@@H](n2ccc(=O)[nH]c2=O)[C@H](O)[C@@H]1O)N[C@H](Cc1ccccc1)C(=O)NCCCN1CCCC1=O → -19.7, 0.0%, 3.1, -2.7, 14.0, -6.4

Going on with the list.
item	Structure	CtBP-E1A inh	PINK1 modulator	TRPML1 agonist	D2 ag	Six1-Eya2 blk	D2 potentiator
31	O=c1c2cc(Cl)ccc2nc(-c2ccc([N+](=O)[O-])cc2)n1O	16.6	12.7%	23.0	0.5	2.9	-3.6
32	CC1CCN(C(=O)C2CCN(CC(C)c3ccccc3)CC2)CC1 (stereo unspecified)	0.3	-0.9%	-0.2	-2.6	1.6	-19.2
33	CCc1cc(C(=O)NCC(c2ccc(OC)cc2)N2CCOCC2)sc1C (stereo unspecified)	1.4	-4.2%	1.2	-1.2	2.4	-28.5
34	COc1ccc(C(=O)OCC(=O)NCC2CCCO2)c(F)c1 (stereo unspecified)	nt	4.0%	-0.5	2.5	4.8	-4.1
35	OC(Cn1cnnc1)c1ccccc1 (stereo unspecified)	-0.8	1.8%	-0.1	-2.8	1.9	-1.5
36	COc1ccc(/C=C(/C(=O)c2cccs2)N2C=CC=CC2=C(C#N)C#N)cc1	nt	-0.2%	3.1	-10.1	-14.3	-32.1
37	CSc1nccc(NC(=O)c2ccc(C(C)(C)C)cc2)n1	nt	0.2%	1.7	12.1	5.9	-7.4
38	CC1(C)c2[nH]c3ccccc3c2C[C@H]2C(=O)N(CCCCCO)CC(=O)N21	-4.7	-0.4%	1.8	8.9	-0.1	-17.2
39	COc1ccccc1C(CNC(=O)c1cccc(S(=O)(=O)Nc2ccc(C)cc2)c1)N(C)C (stereo unspecified)	-9.2	-1.2%	2.7	-1.8	-3.5	-36.1
40	COc1cc(/C=C/C(=O)N2C(=O)c3cccc(N)c3C2=O)cc(OC)c1OC	-2.8	6.9%	1.9	-0.7	-10.7	-3.4
41	O=C1CC(N2CCCc3ccccc32)C(=O)N1c1ccccc1 (stereo unspecified)	-1.2	3.5%[38.3 µM]	-0.7	0.1	-0.3	-10.4
42	COc1ccccc1CNC(=O)[C@@H]1CCCN1C(=O)[C@@H]1Cc2ccccc2CN1C(=O)OC(C)(C)C	6.5	1.7%	0.3	-0.5	1.4	-9.5
43	COc1ccc(C/C(C)=N\NC(=O)c2c[nH]c3ccccc23)cc1OC	nt	2.0%	-0.5	-3.4	-0.5	-23.8
44	O=C(COC(=O)C1CCN(c2ccc(C(F)(F)F)cn2)CC1)NCc1ccc(F)cc1	10.8	-0.9%	2.0	-1.5	2.5	19.1
45	CC1CCN(C(=O)COC(=O)C2CCN(S(=O)(=O)c3ccc4c(c3)OCCO4)CC2)CC1	-2.1	-0.3%	-0.5	-4.5	1.2	-12.5
46	Cc1cc(C)c(-c2cc(NC(=O)COC(=O)c3ccc(CO)cc3)n(-c3ccccc3)n2)cc1C	2.9	0.8%	3.1	1.9	0.3	1.1
47	CCCN(CCC)C(C)C(=O)NCC1(c2ccccc2)CCCC1 (stereo unspecified)	nt	28.3%	106.9*	-5.8	1.8	-6.0
48	COc1ccc(C2C(C#N)=C(N)Oc3c2sc2nc(C)cc(C)c32)cc1 (stereo unspecified)	-2.7	8.5%	0.8	-4.7	-1.2	-6.3
49	COc1ccc(N2CC(C(=O)Nc3nccs3)CC2=O)cc1 (stereo unspecified)	3.9	-1.1%	-0.4	-1.4	1.1	-19.6
50	COCCNC(=O)COc1coc(CN2CCN(Cc3ccccc3)CC2)cc1=O	2.5	0.0%	-0.2	0.5	-3.9	-7.0
51	CCOCCN(C(=O)COC)c1cccc(OC)c1	-3.5	0.8%	-0.6	0.5	2.7	-0.2
52	COC(=O)/C=c1/sc2nc3ccccc3n2c1=O	4.1	-1.4%[38.3 µM]	-0.6	-3.1	-2.2	-3.0
53	O=C(CCCn1cncn1)N1CCCC(Nc2ccc(F)cc2)C1 (stereo unspecified)	2.8	-1.0%	0.4	-2.5	0.1	10.8
54	Cc1ccc(-c2csc(/C(C#N)=C/Nc3ccccc3SC(F)(F)F)n2)c(C)c1	5.0	2.4%	0.9	-1.6	4.8	-1.3
55	Cn1c(=O)oc2cc(S(=O)(=O)NCCC(=O)N3CCc4ccccc4C3)ccc21	-8.6	1.0%[38.3 µM]	-0.1	-3.5	-15.7	0.3
56	COc1ccc(-n2c(SCC(N)=O)nnc2-c2cccnc2)cc1	14.2	-2.3%	0.4	-4.1	1.6	-7.2
57	C(=C\c1nc(N2CCCC2)c2ccccc2n1)/c1ccccc1	2.4	-3.0%	4.3	0.3	-1.0	-17.3
58	CC1CC(C)CN(C(=O)CCCn2c(=O)c3cccn3c3cccnc32)C1 (stereo unspecified)	-28.4	0.1%	-0.9	-1.4	1.2	-6.2
59	CC1=NN(C(N)=S)C(=O)C1N=Nc1c(C)cc(C)cc1C (stereo unspecified)	-9.3	0.2%	0.0	-3.1	-7.0	-4.0
60	Cc1ccc(NC(=O)/C(=C/c2ccco2)c2ccccc2)c(C)c1	-1.4	2.4%	1.2	-1.1	-10.8	-21.8
61	COc1ccc(/C=C2\N=C(SC)NC2=O)cc1	-0.5	-1.1%	5.1	-4.4	-1.9	-2.1
62	COc1ccc(N2CCN(C(=O)CC3NC4CCCCC4NC3=O)CC2)cc1 (stereo unspecified)	3.9	-1.1%	-0.3	-2.9	-3.2	-21.2
63	Cc1ccc2[nH]c(C(=O)N3CCCCC3)cc2c1	0.0	-0.4%	0.2	-2.8	0.3	-4.3
64	COc1ccc(NC(=O)c2ccc(Cl)nc2)cc1S(=O)(=O)N1CCCCC1	?	1.5%	2.4	1.3	?	-9.0
65	COc1cc(CN2C(=O)C(C)ON=C2c2ncccc2C)cc(OC)c1 (stereo unspecified)	0.0	0.6%	-0.7	-3.6	0.2	-0.5
66	Cc1ccccc1-n1cnc2cc(NCc3cccs3)ccc21	-24.0	0.7%	1.1	-2.9	-23.2	-13.2
